# Screening results (PubChem BioAssay)
# Biofilm kill mix: mixtures killing C. albicans biofilm; C. albicans biofilm persisters + clotrimazole, fluorescence viability; primary screen in compound mixtures of four per well; inhibition, % at 7.6 µM; hit rate 0.02% among 120,000;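 active means inhibition above 30.3% in the primary screen of four-compound pools, then above 30% when the compound was retested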;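 further: compounds exposed to preformed 24 h biofilms for 48 h; the number belongs to the whole pool; some results filed as inactive read as strong as hits; inactives centre near 12; 0% = biofilm with clotrimazole alone and 100% = kill control; retested singly at about 60 µM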
#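 Probe or stimulus – Clotrimazole 50 µg/mL co-treatment · System – C. albicans biofilms · Schedule – 24 h biofilm formation, then 48 h compound exposure, 37 °C · Evaluation – percent inhibition of biofilm viability · Technique – 2-h Alamar Blue fluorescence, 535/590 nm excitation/emission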
# * = called active by the depositor. The list is partial; the hit share may differ from the screen's.
Structure	Biofilm kill mix
O=C(N/C(=C/c1cn(-c2ccccc2)nc1-c1ccccc1)C(=O)N1CCOCC1)c1ccc(Cl)cc1Cl	9.8
COc1ccc(C(=O)/C(C#N)=N/Nc2ccc([N+](=O)[O-])cc2)cc1	-12.3
CS/C(=N\NC(N)=O)c1ccccc1	-5.1
COc1cc(/C=C2\SC(=O)N(Cc3ccc(F)cc3)C2=O)cc([N+](=O)[O-])c1O	8.9
Cc1cccc(/C=N/c2sc3c(c2C#N)CCN(Cc2ccccc2)C3)c1O	16.0
O=C(Nc1ccc2nc(-c3ccccn3)c(-c3ccccn3)nc2c1)N1CCOCC1	15.5
CCOC(=O)c1c(C)n(C)c2ccc(OC)c(NC(=O)CN3CCC(C(=O)OCC)CC3)c12	14.9
CCn1c(CCn2c3ccccc3c3ccccc32)n[nH]c1=S	18.6
O=C(c1cccc([N+](=O)[O-])c1)c1ccc2c(c1)OCCOCCOCCOCCO2	35.3
O=C(N/N=C/c1ccccc1C(=O)O)c1ccc(COc2cccc3cccnc23)cc1	7.2
CC(=O)N1CCC(=NNC(=O)CSc2cc(C)c(Br)cc2C)CC1	12.8
CCOC(=O)C1=C(C)Nc2ccccc2N=C1NC(=O)/C=C/c1ccc(OC)cc1OC	7.0

Structure	Biofilm kill mix
O=C(N/N=C1\CCSC1)c1cc(Cl)ccc1O	7.7
CC(O)C(NS(=O)(=O)c1ccc(Cl)cc1)C(=O)OCc1cc([N+](=O)[O-])cc2c1OCOC2 (stereo unspecified)	16.7
CCOC(=O)c1ccc(NC(=S)Nc2ccc(C)cc2)cc1	29.5
CN(CC(=O)N1CCN(c2ccccc2)CC1)S(=O)(=O)c1cccs1	22.2
N#C/C(=C\c1ccc(C#N)cc1)C(=O)c1ccccc1	27.8
CC(=O)N1NC(=Nc2ccccc2)SC1(C)C	17.6
NC1=NC[C@H](Cc2ccc(O)cc2)N1CCC12CC3CC(CC(C3)C1)C2	17.3
CCCn1nc(NC(=O)c2cccs2)c2cc3cc(C)ccc3nc21	19.9
COc1cccc(C2c3c(-c4ccccc4O)n[nH]c3C(=O)N2Cc2ccco2)c1 (stereo unspecified)	23.7
O=C1[C@H]2C(c3ccccc3)=NN(c3ccccc3)[C@H]2C(=O)N1c1ccccc1	18.1
Cc1cccc(NC(=S)N(CCCN2CCOCC2)Cc2ccccn2)c1	15.7
O=C(c1ccc(F)cc1)N1CCCC(c2nc(-c3cccs3)no2)C1 (stereo unspecified)	8.2

Structure	Biofilm kill mix
Cc1ccc(S(=O)(=O)N2CCOCC2)cc1C(=O)Nc1ccc2c(c1)CCC2	16.2
CC(OC(=O)C1=COCCO1)C(=O)Nc1ccccc1C#N (stereo unspecified)	7.6
Cc1cc(N2CCN(c3nc(-c4ccc([N+](=O)[O-])cc4)cs3)CC2)c2ccccc2n1	0.2
Cc1ccc(-c2c[n+](Cc3cccc(Cl)c3)c3n2CCC3)cc1	15.8
C/C(CC(=O)Nc1cccc(C(F)(F)F)c1)=N\NC(=O)C(=O)NCC(C)C	7.4
O=C(NC(=S)NCC1CCCO1)c1ccc(Br)o1 (stereo unspecified)	4.5
NC(=O)c1ccc(NC(=O)COC(=O)c2c3c(nc4ccccc24)/C(=C\c2ccc4c(c2)OCO4)CCC3)cc1	12.9
Cc1ccc(NC(=O)C(=O)NCCN2CCN(Cc3ccc([N+](=O)[O-])cc3)CC2)cc1	21.3
CN(C)c1ccc(N2C(=O)CC(c3ccccc3)CC2=O)cc1	12.7
O=C(Nc1ccccc1C(=O)NCCCn1ccnc1)c1ccc(Cl)cc1Cl	17.1
C/C(=N\NC(=O)NC1CCCCC1)c1ccco1	13.1
Cc1ccc([C@H]2C(C#N)=C(N)Oc3cc(C)oc(=O)c32)o1	-3.0

Structure	Biofilm kill mix
CCOc1ccc(NC(=O)C2CCCN(C(=O)NCc3ccccc3)C2)cc1 (stereo unspecified)	10.8
Cc1ccc2cc(N)ccc2n1	16.2
CCC(C)NC(=O)c1ccc2c(c1)N(Cc1ccccc1)C(=O)CS2 (stereo unspecified)	8.8
O=C(CN1CCCCC1)N1c2ccccc2Sc2ccc(C(F)(F)F)cc21	12.7
CCS(=O)(=O)c1ccc2oc(SCC(=O)Nc3ccc(OC)cc3OC)nc2c1	15.0
COCCCNC(=S)N1CCC(NC(=O)Nc2ccc(C)cc2)CC1	20.0
C(=N\Nc1nc(Nc2ccccc2)nc(Nc2ccccc2)n1)/c1ccncc1	7.2
CC1CCC2C(=O)N(c3ccc(Cc4ccncc4)cc3)C(=O)C2C1 (stereo unspecified)	13.5
COc1ccccc1CNC(=O)C(NC(=O)c1ccccc1)C(C)C (stereo unspecified)	11.5
O=C(C1CCC1)N1CCc2cc(S(=O)(=O)Nc3ccc4c(c3)OCO4)ccc21	10.0
Cc1cccc(CSc2cn(CC(=O)N3CCOCC3)c3ccccc23)c1	15.0
O=C(N/N=C/c1c[nH]c2ccccc12)C1CC1c1ccccc1 (stereo unspecified)	7.3

Structure	Biofilm kill mix
Cc1cnc(NC(=O)c2sc3ccccc3c2Cl)s1	12.7
CCCCN(C)C(=O)C1CCN(Cc2ccc(OCc3ccccc3)cc2)CC1	8.2
COc1ccc(-n2cnnc2SCC(=O)NC2CCCc3ccccc32)cc1 (stereo unspecified)	8.0
O=C(O)C1Cc2[nH]cnc2C(c2cccc([N+](=O)[O-])c2)N1 (stereo unspecified)	15.2
CC1CCN(c2ccc(C(=O)Nc3ccc4c(c3)OCO4)cc2[N+](=O)[O-])CC1	4.8
COc1ccc(Nc2nc(-c3cccs3)nc3ccccc23)c(OC)c1	1.1
CCc1cccc(CC)c1NC(=O)COC(=O)Cc1ccsc1	14.3
Cc1cccc(Nc2nccc(N(C)C)c2C#N)c1	-4.2
O=C(CNC(=O)c1ccc(Cl)cc1)N/N=C/C=C/c1ccccc1	18.9
COc1ccc(OCC(=O)N/N=C\c2ccco2)cc1	6.8
O=C(Nc1ccc(O)cc1)c1c(O)c2c([nH]c1=O)CCCC2	10.3
CCOc1ccc2nc(CN3CCN(Cc4ccsc4)C(CCO)C3)ccc2c1 (stereo unspecified)	9.3

molecule | Biofilm kill mix
O=C(O)c1ccc(Cl)c(N2C(=O)Nc3ccccc3N2O)c1 | 19.6
Cc1cccc(NS(=O)(=O)c2cc(C(=O)OC(C)C(=O)NCc3ccc4c(c3)OCO4)ccc2C)c1 (stereo unspecified) | 16.2
CNC(=S)NNC(=O)c1cn(C)nc1C | 7.2
O=[N+]([O-])c1ccc(O)c(N=Cc2sc3ccccc3c2O)c1 | 18.8
O=C(CN1CCOCC1)Nc1cc(C(F)(F)F)ccc1Cl | -9.3
CCN=C1S/C(=C\c2cn(CC(=O)NCCOC)c3ccccc23)C(=O)N1CC | -0.3
COC(=O)c1cc(S(=O)(=O)Nc2ccsc2C(=O)OC)oc1C | 4.2
CSc1nnc2ccc(-c3ccccn3)nn12 | 4.4

molecule | Biofilm kill mix
Cc1nc2cc(-c3cccs3)nn2c(NCC(C)(C)CN(C)C)c1C | 10.0
COc1ccc(-n2nc(C(=O)N3CCCCC3)c(C)c(C#N)c2=O)cc1 | 14.0
COc1ccc(Cn2c(=S)[nH]c3ccsc3c2=O)cc1 | 9.0
COc1ccc(/C=C/C(=O)NC2CCCCCC2)cc1S(=O)(=O)N1CCOCC1 | -15.2
CCOC(=O)C1CCN(CCC(=O)Nc2cccc(C)c2)CC1 | 9.5
COC(=O)c1cc(C#N)c(OC)nc1C | 17.0
NC(=O)COC(=O)c1cc([N+](=O)[O-])ccc1NCCO | 26.8
C/C(CC(=O)NCc1ccco1)=N\NC(=O)COc1ccc(Cl)cc1Cl | 6.3

molecule | Biofilm kill mix
Cc1nc(Nc2ccc(C(=O)O)cc2)sc1-c1ccccc1 | 5.0
CCOC(=O)Nc1ccc2nc(N3CCCCCC3)sc2c1 | 17.5
CC(=O)c1c(C(=O)O)c2ccccc2[nH]c1=O | 14.1
Cc1ccc(-n2ncc3c(NCc4cccnc4)ncnc32)c(C)c1 | -4.1
Cc1ccc(S(=O)(=O)Oc2ccccc2/C=C2/SC(=O)NC2=O)cc1 | 7.9
O=C/C(=C\Nc1ccc(Br)cc1)c1nc2ccccc2o1 | 19.3
Cc1ccc(Nc2c(N)c(=O)oc3ccccc23)cc1 | 12.5
COc1cccc(-c2nn[nH]n2)c1O | 14.6

molecule | Biofilm kill mix
Cc1ccccc1Cn1nc(C)c(NC(=O)/C=C/c2cnn(C)c2)c1C | -14.9
CCOC(=O)N1CCN(c2c(NCCN3CCN(c4ccccc4F)CC3)c(=O)c2=O)CC1 | 27.4
Cc1ccc(S(=O)(=O)N2CCOCC2)cc1NC(=O)CSc1nc(N)cc(=O)[nH]1 | 1.1
CC(=O)Nc1ccc2c(c1)C(C)(C)C(C)N2C (stereo unspecified) | 16.1
Cc1ccc(S(=O)(=O)N2CCC(=O)N(CCOC(=O)Nc3cccc(Cl)c3)CC2)cc1 | 16.1
Cc1nn(CC(=O)OC(C)C(=O)Nc2ccccc2[N+](=O)[O-])c(C)c1[N+](=O)[O-] (stereo unspecified) | 0.4
CCc1nnc(NC(=O)c2ccc(-c3ccc(F)cc3)o2)s1 | 10.8
CCOC(=O)c1sc2ncnc(N3CCN(CC)CC3)c2c1C | 26.4

molecule | Biofilm kill mix
CCNc1nc(NCC)nc(SCCOC(=O)Nc2ccc(Cl)cc2Cl)n1 | 2.6
Cc1ccc(NC(=O)CO/N=C/c2ccc(N(C)C)cc2)cc1 | 20.9
COc1cc(C(=O)OC2CC3CCC2(C)C3(C)C)ccc1OC(C)=O (stereo unspecified) | 15.4
COc1ccc(/C=N/N=C2/NC(=O)C(CC(=O)NC(N)=O)S2)cc1 (stereo unspecified) | 3.5
NCCN=C1NS(=O)(=O)c2ccccc21 | 13.0
COC(=O)c1c(C(=O)OC)c2n(c1C)CCS2 | 9.4
N#Cc1cc(N2CCCCC2)c([N+](=O)[O-])cc1C#N | 9.1
O=C(Cc1ccc(Br)cc1)N/N=C/c1ccc(-c2cccc(C(=O)O)c2)o1 | 26.6

molecule | Biofilm kill mix
CC1=CC2=NC(=O)/C(=C\c3cccn3CCOc3cc(C)ccc3C)C(=N)N2O1 | 19.1
CC(=O)Nc1ccc(NC(=O)CSc2ccc(-c3cccs3)nn2)cc1 | 2.5
Cc1[nH]c2ccccc2c1Cc1nnc(SCCC#N)o1 | 16.3
O=C1/C(=C\c2ccsc2)NC(=S)N1c1ccccc1 | 3.3
COc1ccc(-n2c(C)cc(C(=O)CSc3ccc(NC(C)=O)cc3)c2C)cc1 | 14.5
C(#CCN1CCC(Cc2ccccc2)CC1)COCCOCc1ccccc1 | 18.6
COc1ccccc1NC(=O)Cc1c(F)cccc1Cl | 18.1
S=c1[nH]nc(-c2ccco2)n1/N=C/c1cccs1 | 6.9

molecule | Biofilm kill mix
Cc1cccc(OCC(=O)NCC(=O)N/N=C/c2c(C)[nH]c3ccccc23)c1 | 16.7
CC(C)c1ccc(NC(=S)NCc2ccc3c(c2)OCO3)cc1 | 7.2
O=C1CS/C(=N/N=C/c2ccc(OS(=O)(=O)c3ccccc3)cc2)N1 | 9.2
COC(=O)c1ccc(S(=O)(=O)NCc2ccco2)n1C | 14.3
COC(=O)C1=C(C)N(Cc2ccccc2)C(=O)N[C@H]1c1cccc(C(F)(F)F)c1 | 16.2
CC(C)(C)OC(=O)NCCCC[C@H](NC(=O)c1[nH]cnc1C(=O)Nc1ccc(CNC(=O)OC(C)(C)C)cc1)C(=O)OC(C)(C)C | 12.8
CC(=O)c1ccc(NC(=S)N2CCN(C(=S)Nc3ccc(C(C)=O)cc3)C(C)C2)cc1 (stereo unspecified) | 2.8
CSc1ccc(/C=C(\C(=O)O)c2ccc(S(=O)(=O)N3CCCCC3)s2)cc1 | 24.1

molecule | Biofilm kill mix
O=C(Nc1ccc(NC(=S)NC(=O)c2cccs2)cc1)c1ccco1 | 12.2
COc1ccc(N=C2SC(C(=O)Nc3ccc(C(=O)O)cc3)CC(=O)N2Cc2cccs2)cc1 (stereo unspecified) | 21.7
S=c1nc(-c2cc(Cl)cc(Cl)c2)[nH][nH]1 | 13.8
O=C(N/N=C/c1ccccc1OC(F)F)NC1CCCCC1 | 15.8
COc1ccc(C(C#N)N2CCOCC2)cc1 (stereo unspecified) | 12.2
CCCNc1cc(C)oc(=O)c1C(=O)CC | 14.2
O=C(O)/C=C/C(=O)Nc1ccc(SC(F)(F)F)cc1 | 3.5
Cc1nn(C)c(C(=O)NC2C3CC4CC(C3)CC2C4)c1Cl (stereo unspecified) | 21.2

molecule | Biofilm kill mix
COc1ccc(NS(=O)(=O)c2cccc(NC(=O)CCC(=O)c3cccs3)c2)cc1 | 13.7
O=C(CCC(=O)c1cccs1)NCC(=O)Nc1ccc(F)c(F)c1F | 11.2
CC(C)Oc1cc(NC(=O)CS(=O)CC(=O)N(C)C)c(Cl)cc1Cl (stereo unspecified) | 3.5
CC(=O)Nc1ccc(Nc2cc(C)nc3c(-c4ccc(Cl)cc4)cnn23)cc1 | -3.6
OCC(O)C1OC(Nc2ccc(Cl)cc2)C(O)C1O (stereo unspecified) | -0.4
COc1ccc(C(=O)N2CCN(S(=O)(=O)c3ccc(F)cc3)CC2)cc1OC | 7.0
NCCCC(N)(C(=O)O)C(F)F (stereo unspecified) | 6.3
COc1cccc(SCC(=O)N2CCN(c3ccccc3)CC2)c1 | 24.2
Cc1cccc(C)c1-n1c(C)cc(/C=N\NC(=O)CC(=O)NC2CCCCC2)c1C | 21.4
Cc1ccc(S(=O)(=O)N(C)/N=C/C=C/c2ccccc2)cc1 | 14.7

# Retrieved by structure from the list above:
molecule | Biofilm kill mix
Cc1ccc(S(=O)(=O)Oc2ccccc2/C=C2/SC(=O)NC2=O)cc1 | 7.9
CCOC(=O)c1c(C)n(C)c2ccc(OC)c(NC(=O)CN3CCC(C(=O)OCC)CC3)c12 | 14.9
COC(=O)C1=C(C)N(Cc2ccccc2)C(=O)N[C@H]1c1cccc(C(F)(F)F)c1 | 16.2
N#Cc1cc(N2CCCCC2)c([N+](=O)[O-])cc1C#N | 9.1
COc1cccc(SCC(=O)N2CCN(c3ccccc3)CC2)c1 | 24.2
